NS1 inh – influenza NS1 inhibition | S. cerevisiae slowed by influenza A NS1, growth recovery by OD600 | Potency, µM (series often up to 46.1 µM), for the others: at the highest dose activity, positive = more growth | 270,000 compounds, 0.4% hits | AID 2326; further: actives are rising curves; nearly all actives have a fitted effect of over 50% in size
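A cell-based growth assay was used: compounds that relieve NS1-induced slow growth of budding yeast raise OD600. Assay medium was yeast nitrogen base with ammonium sulphate and -URA supplement, pH 6.0, with 2% galactose.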
Cruzain inh noDet – cruzain (T. cruzi) inhibition without detergent. purified cruzain, Z-FR-AMC fluorescence, no detergent. Potency, µM, for inactives: max response, negative = inhibition, usual class: inhibitors. 200,000 compounds, 2.3% hits. AID 1476; active means well fitted curve in the direction sought with a large enough effect; inconclusive means small, poorly fitted or top-dose-only effect, or another doubt; inactive means no such curve, though single readings can be large; an effect the other way counts as inactive or inconclusive;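 further: plate controls were enzyme without inhibitor for no effect and buffer without enzyme for full effect; nearly all actives have a fitted effect of over 40% in size; top concentration of the series not given in the record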
Target sequence (P25779 123-467 limits assumed): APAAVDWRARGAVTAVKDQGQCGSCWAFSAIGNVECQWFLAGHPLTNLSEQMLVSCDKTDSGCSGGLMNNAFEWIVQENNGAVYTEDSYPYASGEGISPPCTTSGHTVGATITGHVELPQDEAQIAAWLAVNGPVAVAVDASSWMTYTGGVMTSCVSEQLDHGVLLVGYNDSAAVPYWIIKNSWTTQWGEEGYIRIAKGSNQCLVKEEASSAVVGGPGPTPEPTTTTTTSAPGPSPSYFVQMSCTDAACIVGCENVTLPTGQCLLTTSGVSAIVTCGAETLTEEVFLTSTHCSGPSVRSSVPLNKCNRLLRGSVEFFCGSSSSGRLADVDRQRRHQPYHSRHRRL
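Detergent-free condition (0.00005% Triton X-100) in acetate buffer pH 5.5 with DTT. 1.5 nM enzyme and compound were pre-mixed 15 min, then 2 uM Z-FR-AMC substrate added; reaction progress from fluorescence change between first and third reads (60 s).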
2A StopGo – FMDV 2A StopGo reporter, luciferase signal | Potency, µM (top dose mostly 57.9 µM), for inactives: at the top dose signal change, negative = less light | 410,000 compounds, 1.2% hits | human cells with a luciferase reporter of 2A StopGo recoding; control for the full effect not named in the record; active = well fitted falling curve with a large enough effect; inconclusive = small, poorly fitted or top-dose-only effect; inactive = no such curve, though single readings can be large or run the other way; tested in HEK293T cells; further: on the % scale 0 is the no-effect control and ±100 the full control effect; nearly all actives have a fitted effect of over 45% in size; luciferase light after 4 h
MARV entry inh – inhibitors of Marburg virus binding or cell entry; Marburg virus pseudotyped entry inhibition, cell reporter; control for the full effect not named in the record; about a third of the inactives were read at about 46 µM; 300,000 compounds, 1.8% hits; AID 540276; Potency, µM (titrated, usually from 37.8 µM), without a hit: at the highest dose activity change, negative = inhibition, hits mostly inhibitors; active = well fitted inhibition curve with a large enough effect; inconclusive = small, poorly fitted or top-dose-only effect, or effect the other way; inactive = flat fitted curve, though single readings scatter; tested in HEK293 cells; about a fifth of its hits are not listed in these tables; further: on the % scale 0 is the no-effect control and ±100 the full control effect; luciferase read-out
LASV entry inh – blocks Lassa virus binding to or entry into cells. Lassa virus pseudotype entry inhibition, cell reporter; control for the full effect not named in the record. Potency, µM (doses to about 37.9 µM), for inactives: at the top dose activity change, negative = inhibition, actives largely listed as inhibitors. 300,000 compounds, 1.2% hits; active means well fitted inhibition curve with a large enough effect; inconclusive means small, poorly fitted or top-dose-only effect, or effect the other way; inactive means flat fitted curve, though single readings scatter; tested in HEK293 cells; further: on the % scale 0 is the no-effect control and ±100 the full control effect; nearly all actives have a fitted effect of over 50% in size; luciferase read-out
SARS PLpro yeast – blocks SARS-CoV papain-like protease in a yeast assay; S. cerevisiae expressing SARS-CoV PLpro, growth rescue; control for the full effect not named in the record; Potency, µM (doses to about 32.9 µM), inactives show top-dose activity, positive = growth rescue; AID 485353; 330,000 compounds, 0.19% hits; further: 0% is about no effect; nearly all actives have a fitted effect of over 55% in size; growth read by luminescence after 48 h
Cruzain inh Det – inhibitors of Trypanosoma cruzi cruzain with detergent. P25779. purified cruzain, Z-FR-AMC fluorescence, 0.01% Triton. AID 1478. Potency, µM, for inactives: max response, negative = inhibition, actives largely listed as inhibitors. 200,000 compounds, 0.43% hits; active means well fitted curve in the direction sought with a large enough effect; inconclusive means small, poorly fitted or top-dose-only effect, or another doubt; inactive means no such curve, though single readings can be large; an effect the other way counts as inactive or inconclusive;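 further: plate controls were neutral wells for no effect and buffer without enzyme for full effect; nearly all actives have a fitted effect of over 40% in size; top concentration of the series not given in the record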
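Steps: dispense cruzain (1.5 nM final) in acetate buffer pH 5.5 with DTT and 0.01% Triton X-100; pin-transfer compounds; incubate 15 min RT; add Z-FR-AMC (2 uM final); read fluorescence every 30 s, using the 60 s intensity change.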
RE007 growth inh – less growth of the S. pombe RE007 Vpr strain. S. pombe RE007 Vpr strain, BacTiter-Glo ATP luminescence, 24 h; control for the full effect not named in the record. Potency, µM (top dose mostly 92.2 µM), for inactives: at the highest dose activity change, negative = less growth. 360,000 compounds, 0.21% hits; active = well fitted falling curve with a large enough effect; inconclusive = small, poorly fitted or top-dose-only effect; inactive = no such curve, though single readings can be large or run the other way;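 further: on the % scale 0 is the no-effect control and ±100 the full control effect; nearly all actives have a fitted effect of over 50% in size; the assay follows cell death caused by Vpr and the record does not say whether a fall means rescue or toxicity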
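Fission yeast strain RE007, carrying one chromosomally integrated HIV-1 vpr copy, was seeded at OD 0.01 in PMG+AL medium with 23 nL pinned compound. After 24 h at 30 °C and 99% humidity, viability was read by BacTiter-Glo luminescence.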
Numbers without * were called inactive; u = inconclusive; x = not tested or not shown; & = joins results of further samples; [ ] = another dose, or the depositor's remark. Unless noted, the call rests on the fitted dose curve; in most records, active means well fitted rising curve with a large enough effect; inconclusive means small, poorly fitted or top-dose-only effect; inactive means no such curve, though single readings can be large or run the other way. Potency means the concentration at half of the fitted maximal effect.

Each structure is followed by: NS1 inh | Cruzain inh noDet | 2A StopGo | MARV entry inh | LASV entry inh | SARS PLpro yeast | Cruzain inh Det | RE007 growth inh
Cc1ccc(NC(=O)CN(C)C(=O)CSc2nnc(NC(C)C)s2)cc1
→ x | x | 1% | -7% | -9% | 1% | x | -4%
O=C(O)C1CC=CCC1C(=O)Nc1cccc(Cl)c1 (stereo not drawn)
→ -9% | -5% | -14% | 0% | 11% | 3% | -5.5% | 9%
O=C(NCCc1ccccc1)c1ccc(NCC2CCCO2)c([N+](=O)[O-])c1 (stereo not drawn)
→ x | x | 65%[activator] | 11%[46.1 µM] | u | -4% | x | 15%
CN1CCN(c2ccc(NC(=O)c3ccc(Cl)cc3)cn2)CC1
→ x | x | -5% | 0%[46.1 µM] | 0% | 1% | x | 3%
COc1ccc(NC(C)=O)cc1NC(=O)CSc1nnc(C2CCCCC2)n1N
→ 7% | x | -16% | 1% | 4% | 19% | x | -12%
COc1ccc(OC)c(-c2cc(C(=O)N3CCOCC3)no2)c1
→ -11% | x | -2% | 19%[46.1 µM] | -11% | -2% | x | -2%
CC(C)c1ccc(NC(=O)C(Cc2ccccc2)NS(=O)(=O)c2ccc3c(c2)oc(=O)n3C)cc1 (stereo not drawn)
→ x | 4% | -10% | 13%[46.1 µM] | -15%[46.1 µM] | x | 1.7% | x
CCOC(=O)N1CCN(c2ccccc2O)CC1
→ -6% | -3% | -11% | -6% | 21% | 0% | -1.4% | -15%
CN(C)C(=O)Oc1cc(OC(=O)N(C)C)cc(C(O)CNC(C)(C)C)c1 (stereo not drawn)
→ x | -3% | -17%&-20%&5% | x | x | x | 6.0% | -3%&0%[18.4 µM]
CCCC(=O)Nc1cccc(-c2nc3ncccc3o2)c1
→ x | 9% | 7% | x | -9%[46.1 µM] | x | -1.1% | x
Cc1sc2ncnc(N3CCC(C(=O)Nc4cc(S(C)(=O)=O)ccc4Cl)CC3)c2c1C
→ x | x | u | u | -3% | 2% | x | -12%
COc1cc(C)ccc1OCCON1C(=O)CCC1=O
→ 6% | x | 2% | 19%[46.1 µM] | -6%[46.1 µM] | 1% | x | -25%
COc1ccc(-n2c(NC(=O)c3ccco3)c(C#N)c3nc4ccccc4nc32)cc1
→ -3% | u | u | u | 3% | 29% | -27% | 7%
O=C(/C=C/c1c(Cl)cccc1Cl)NCc1ccccc1
→ -1% | -20% | -22% | -3% | 10% | 6% | 0.1% | -3%
CC(C)c1ccc(N(CC(=O)NCCSC(C)(C)C)S(C)(=O)=O)cc1
→ 1% | u | -18% | u | u | 1% | 3.4% | -5%[3.69 µM]
Cc1cccnc1-n1c(-c2ccccc2)nc2ccccc2c1=O
→ 6% | 4% | -18% | 8% | 8% | 1% | -1.2% | -20%
CCCNC(=O)N1CCN(c2nc(C(C)C)c3c(c2C#N)CC(C)(C)OC3)CC1
→ -33% | u | u | x | x | 3% | -7.7% | 10%
Cc1cccn2c(=O)c(/C=C(\C#N)c3nc4ccccc4[nH]3)c(Oc3ccc(C(C)(C)C)cc3)nc12
→ x | 28% | -6% | 1%[46.1 µM] | 27%[46.1 µM] | x | -0.4% | x
COC(=O)c1ccc(NC(=O)C(=O)N2CCN(C(=S)Nc3ccc(OC)cc3)CC2)cc1
→ 16% | 16% | 0% | -24% | u | -5% | -5.7% | 6%
COc1ccc(NC(=O)Cn2c(=O)n(Cc3ccccc3Cl)c(=O)c3cc(OC)c(OC)cc32)cc1
→ x | -14% | u | -4%[46.1 µM] | 1%[46.1 µM] | x | 0.1% | x
CCOC(=O)N1CCN(C2CC(=O)N(c3ccc(Cl)c(Cl)c3)C2=O)CC1 (stereo not drawn)
→ -23% | u | -17% | 20% | 6% | -96% | -6.0% | 11µM*
COc1ccccc1N(Cc1cc2cccc(C)c2[nH]c1=O)C(=O)C(C)C
→ 2% | -5% | u | -11% | -4% | 1% | -0.6% | 14%
O=C(COC(=O)C1CC(=O)N(Cc2ccco2)C1)Nc1ccccc1[N+](=O)[O-] (stereo not drawn)
→ x | x | -9% | -21%[46.1 µM] | -3% | 6% | x | 30%
O=C(Nc1cc2c(cc1Br)OCCO2)c1ccco1
→ -11% | 4% | 62%[activator] | u | 30% | 4% | -1.8% | -21%
Nc1cc(=O)[nH]c(SCC(=O)Nc2cc(Cl)ccc2Cl)n1
→ -1% | x | -24% | 3%[46.1 µM] | 8%[46.1 µM] | 0% | x | 0%
COc1cccc(-c2nc(CS(=O)CC(=O)O)c(C)o2)c1 (stereo not drawn)
→ -1% | 0% | -4% | x | x | 8% | 2.3% | 4%
CCOC(=O)c1nnc2ccnn2c1N
→ 0% | 1% | 8% | u | 19% | -3% | -0.8% | 6%
CCOc1ccc(S(=O)(=O)N2CCCC(C(=O)N3CCCC3)C2)cc1 (stereo not drawn)
→ -19% | x | -9% | u | -1% | -1% | x | 14%
CCN1CCN(c2ccc([N+](=O)[O-])cc2C(=O)OC)CC1
→ u | x | -2% | 4%[46.1 µM] | u | 0% | x | 1%
CCOC(=O)COc1c(Cl)cc(C2NC(=S)NC(c3ccccc3)=C2C(C)=O)cc1OCC (stereo not drawn)
→ -1% | 7% | -7% | -6% | 0% | u | -2.8% | 23%
COc1cc(OC)cc(C(=O)N[C@H](C(=O)OCC(=O)NC(C)c2ccccc2)C(C)C)c1 (stereo partly drawn)
→ -17% | 3% | -11% | 17% | -4% | -1% | -12% | x
CN1C(=O)N(C)C(=O)C2(Cc3cc(NC(=O)c4ccccc4Cl)ccc3N3CCCC32)C1=O (stereo not drawn)
→ 19% | x | 38%[activator] | x | x | -5% | x | 8%
Cc1nn(C(C)(C)C)c(OC(=O)C(C)(C)C)c1Sc1ccccc1
→ x | 2% | -29% | 22%[46.1 µM] | u | x | -9.2% | x
COc1cc(C(=S)N2CCCCC2)ccc1O
→ 9% | 0% | x | 15% | 10% | -2% | 1.0% | -6%
CC1(C)CC(=O)C=C(NCCN2CCNCC2)C1
→ 3% | -2% | -3% | 3% | 10% | 5% | 0.7% | -7%
COc1ccc(C2N=C(c3ccccc3)C(C)(C)N2O)cc1OC (stereo not drawn)
→ 1% | -11% | -24% | u | u | 5% | 1.0% | 0%
CNc1oc(-c2ccc(Cl)cc2)nc1P(=O)(c1ccccc1)c1ccccc1
→ 9% | u | -27% | -38% | u | -24% | 13µM* | 15%
Cc1ccc(S(=O)(=O)Nc2ccc3c(c2)nc(CCN2CCCC2)n3C)cc1
→ 8% | x | -14% | x | x | -1% | x | -1%
O=C(c1cccc2cccc(O)c12)N1CCCCC1
→ -105% | 8% | 62%[activator] | 16% | 8% | -11% | 3.4% | u
COc1ccc(C(=O)NCC(=O)O)cc1
→ -1% | 9% | 19% | 11% | u | x | 4.8% | 12%
NNc1ccc2nncn2n1
→ u | x | -13% | x | x | 1% | x | 0%
O=C(CSc1ncn[nH]1)Nc1ccccc1Sc1ccccc1
→ 1% | 8% | -11% | -27% | -14% | 0% | -0.9% | -3%
CCOc1ccc(CC(=O)Nc2nccs2)cc1
→ x | x | 14% | -5%[46.1 µM] | -3% | -3% | x | 19%
O=C(COC(=O)c1cc(S(=O)(=O)Nc2ccccc2Cl)ccc1O)Nc1nc2ccccc2s1
→ x | x | -9% | u | u | 0% | x | -4%
O=C(N/N=C/c1cccs1)c1n[nH]c2c1CCC2
→ 7% | 1% | -40% | u | u | 6% | -3.9% | -1%
CCc1ccccc1NC(=O)CSc1ncn[nH]1
→ 5% | 4% | x | 2% | -12% | -1% | 7.8% | -1%
Cc1ccc2nc(SCC(=O)NCc3ccc4c(c3)OCO4)nc(=O)n2c1
→ x | x | -14% | 6% | 0%[46.1 µM] | -1% | x | 18%
Oc1[nH]c2ccccc2c1N=Nc1ccccc1
→ 1% | x | 28% | 18%[46.1 µM] | 15% | 1% | x | -24%
Cc1ccc(S(=O)(=O)NNC(=O)c2cnn(-c3ccccc3)c2-n2cccc2)cc1
→ 14% | -3% | 0% | -13% | -2% | -1% | 9.4% | 0%
COc1ccc(NC2=NC(=S)N(c3ccccc3C)C23CCCCC3)cc1
→ 13% | 6% | -15% | -3% | 0% | 28% | -6.1% | 10%
CCNC(=O)CC1C(=O)N(c2ccc(C)cc2)C(=O)N1CCOC (stereo not drawn)
→ 3% | 1% | 8%&9% | -17%&3%[46.1 µM] | 13%&0%[46.1 µM] | 1% | 2.0% | -4%
CCC1Oc2ccc(C)cc2N(CC(=O)N(Cc2cccnc2)Cc2ccc(C)o2)C1=O (stereo not drawn)
→ -18% | u | u | 3%&6% | -6% | -6% | -4.1% | 1%
Nc1nc2nc(-c3ccc(OCc4ccccc4)cc3)cc(C(F)(F)F)n2n1
→ 1% | 6% | 17% | -17% | 2% | 3% | 1.1% | -10%
O=C(O)CC/C(=N\NC(=O)c1ccncc1)c1ccccc1
→ 0% | x | -11% | 0% | 16% | -5% | x | 2%
COc1cccc(NC(=O)N2CCCC2C(=O)NC2CC2)c1 (stereo not drawn)
→ 0% | -3% | -5% | 12% | -7% | 3% | -2.2% | 0%
Cc1ccccc1C(=O)NCc1ccc2c(c1)CCN2C(=O)c1ccc(F)cc1
→ x | -1% | -11% | x | u | x | -1.0% | x
CCCc1nc(SCC(=O)NCC2CCCO2)c2c(=O)n(C)c(=O)n(C)c2n1 (stereo not drawn)
→ 24% | x | -12% | x | x | 17% | x | 6%
CCS(=O)(=O)c1nc(S(=O)(=O)c2ccc(Cl)cc2)c(NCc2ccccn2)s1
→ x | x | 44%[activator] | -7%[46.1 µM] | -13%[46.1 µM] | -1% | x | 9%
O=C(Cn1nc(Cc2cccnc2)c2ccccc2c1=O)Nc1cccnc1Cl
→ x | x | -12% | 4%[46.1 µM] | 5% | -2% | x | 3%

Source: PubChem BioAssay (National Center for Advancing Translational Sciences (NCATS))
